Screens as filed in PubChem.
KSHV LANA nucl: inhibitors of KSHV LANA binding to nucleosomes; FITC-LANA1-23 / chicken nucleosome fluorescence polarization; active compounds read low; z-score (concentration not given with the values); 51,000 compounds, 0.3% hits;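 active means both repeat wells score below -2 in polarization z-score versus plate sample wells, excluding overly bright wells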;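 further: 100 nL library stock added to about 30 µL; numbers are from one replicate; some results filed as inactive read as strong as hits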
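Material: Purified chicken nucleosomes with FITC-labelled LANA N-terminal peptide (1-23) | Reagent: 50 nM FITC-LANA1-23 probe | Medium: TEN-BT buffer, pH 7.5 | Times: 10–45 min incubation at room temperature | Detection: Fluorescence polarization | Replication: Duplicates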
Ab BasE inh: blocks the Acinetobacter baumannii siderophore enzyme BasE | inhibition, % (test concentration not listed) | 84,000 compounds, 0.1% hits | AID 485350 | purified BasE, fluorescence polarization binding displacement;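 active means both replicates above 25% with normal brightness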;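 further: 0% = negative plate control signal and 100% = positive plate control signal; stock transfer was 100 nL into about 30 µL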
* hit, by the source's call; / = not tested or not shown. A portion of the library; the hit share may differ from the screen's.

SMILES | KSHV LANA nucl | Ab BasE inh
c1ccc2c(N3CCCCC3)nc(N3CCCC3)nc2c1 | 0.18 | -0.1
CCN1CCCC1CNC(=O)c1ccc2c(c1)N(Cc1cccc(Cl)c1)C(=O)c1ccccc1S2=O (stereo not given) | -0.48 | -19
CC1=NC2N(C(=S)NC(=O)c3ccco3)N=C(NC(=O)c3ccco3)N2C(OC(=O)c2ccco2)=C1 (stereo not given) | / | 6.3
O=S(=O)(NCCc1nc(-c2ccc(Cl)cc2)no1)c1ccc(F)cc1 | 0.36 | 0.9
Cc1cc2oc(=O)cc(-c3cc4ccccc4o3)c2cc1OCC#N | -1.2 | -1.4
Cc1noc(C)c1CSc1ccccc1C(=O)OCC(=O)NC1(C#N)CCCCC1 | / | 0.0
O=S(=O)(c1ccc(Oc2ccc(S(=O)(=O)N3CCOCC3)cc2)cc1)N1CCOCC1 | 2.2 | -1.5
N#CCC1C(=O)Nc2ccccc21 (stereo not given) | / | -0.1
CCCCNC(=O)c1cc(C)on1 | -1 | 0.7
COc1ccc2c(=O)c3c(oc2c1)C(=O)N(CCN1CCOCC1)C3c1ccccc1 (stereo not given) | -0.13 | 2.7
CCSc1nc2sc3c(c2c(=O)n1CC)CCCC3 | 2.5 | 1.0
CC(C)(C)NS(=O)(=O)c1ccc(N2CCCCS2(=O)=O)cc1 | 0.66 | -0.2
COC(=O)c1c(O)cc(=O)[nH]c1N | -0.75 | -0.1
O=C1COc2ccc(C(=O)CSC(=S)N3CCCC3)cc2N1 | / | -1.7
Cc1ccc(S(=O)(=O)C2(C(=O)N3CCN(c4cccc(Cl)c4)CC3)CC2)cc1 | 1.7 | -2.2

For convenience, some entries already given.
SMILES | KSHV LANA nucl | Ab BasE inh
COC(=O)c1c(O)cc(=O)[nH]c1N | -0.75 | -0.1
O=C1COc2ccc(C(=O)CSC(=S)N3CCCC3)cc2N1 | / | -1.7
Cc1ccc(S(=O)(=O)C2(C(=O)N3CCN(c4cccc(Cl)c4)CC3)CC2)cc1 | 1.7 | -2.2

More records follow:
SMILES | KSHV LANA nucl | Ab BasE inh
Clc1ccc(-c2nc(N3CCCCC3)c3ccccc3n2)cc1 | / | 1.1
Cc1cc(C(=O)Nc2cccc(C(F)(F)F)c2)n[nH]1 | 0.21 | -2.4
CCc1ccc2c(CC(=O)O)coc2c1 | / | -3.3
CC12CCC(CC1=NNC(=O)CSc1nc3ccccc3o1)C2(C)C (stereo not given) | / | -0.6
COc1ccc(/C=C2\C(=N)N3N=C(N4CCOCC4)SC3=NC2=O)cc1 | -1.1 | 1.3
COc1cc(OC)c(NS(=O)(=O)c2cc(-c3cc(C)no3)ccc2C)cc1Cl | / | -1.6
Cc1[nH]c2ccccc2c1-c1nc2ccccc2[nH]c1=O | / | 0.5
CN1CCN(S(=O)(=O)c2ccc(NC(=O)c3ccc(Br)s3)cc2)CC1 | 0.38 | -1.6
CN(C(=O)N1CCN(c2ccccn2)CC1)c1ccccc1 | 0.0025 | -0.2
Cc1ccc(CCNC(=O)c2cc(C)[nH]n2)cc1 | -1.3 | 0.3
Cn1c(=N)sc2ccccc21 | / | 0.6
O=S(=O)(Nc1ccccc1C(F)(F)F)c1ccc2c(c1)CCO2 | / | 2.0
NC(=S)c1cccc(Br)c1 | / | 0.7
CCN1C(=O)/C(=c2\s/c(=C3\Sc4ccc(OC)cc4N3C)c(=O)n2Cc2ccccc2)N(C)C1=S | 0.68 | -0.9
COc1cnn(C2CCCCC2)c(=O)c1Cl | -0.71 | -0.3
CC(C)NC(=O)CSc1nc2ccccc2n1CC(=O)N1CCOCC1 | 0.31 | 1.2
O=C1c2ccc(-c3ccc4c(c3)C(=O)N(CCO)C4=O)cc2C(=O)N1CCO | 0.9 | -2.7
O=C(CO)N/N=C\c1c(F)cccc1Cl | -0.12 | 0.4
Cc1nn(-c2ccccc2)c(C)c1CN(C)CC(=O)NC1CCS(=O)(=O)C1 (stereo not given) | / | 8.6
C=CCN1C(=O)C(CC(=O)NCC)SC1=Nc1ccc(S(N)(=O)=O)cc1 (stereo not given) | -0.16 | -0.3
CC1CC(=O)c2cc(Cl)ccc2S1 (stereo not given) | 0.33 | -9.1
CCOC(=O)C1=C(CC)Nc2ccccc2N=C1NC(=O)CCNC(C)=O | / | -0.7
CC12CCC(=O)N1C(C(=O)O)CS2 (stereo not given) | / | 0.4
O=C1CS(=O)(=O)CN1c1ccc(Cl)c(Cl)c1 | -0.019 | /
COc1cc2ccccc2cc1C(=O)Nc1ccc2c(c1)OCCO2 | / | 1.0
COc1ccc(S(=O)(=O)N2CCCCCC2)cc1C(=O)NC1CCCCC1 | / | -0.2
O=c1[nH]c(=O)n(S(=O)(=O)c2ccc(F)cc2)cc1F | / | -1.2
O=C(COc1ccc(S(=O)(=O)NC2CCCCC2)cc1Cl)NCc1ccccn1 | -1 | -4.3
CCCN1C(=O)C(C#N)=C(C)/C(=C\c2ccc(-c3ccc(Br)cc3)o2)C1=O | -0.023 | 0.1
CC(=O)Oc1ccccc1C(=O)Nc1ncc([N+](=O)[O-])s1 | -0.044 | /
CCCCNc1ncnc2c1nnn2Cc1ccccc1Cl | 0.75 | -2.4
Cc1noc(C)c1CC(C#N)(Cc1c(C)noc1C)C(=O)Nc1ccccc1 | / | 0.7
O=C(O)c1ccccc1C(=O)NC1CCN(c2nccc(C(F)(F)F)n2)CC1 | / | -2.1
O=C(OCC(=O)N1CCN(S(=O)(=O)c2ccc3ccccc3c2)CC1)c1n[nH]c2ccccc12 | / | -0.5
CCc1ccc(NC(=O)COC(=O)CC2(CC(=O)N3CCOCC3)CCCCC2)cc1 | / | 0.8
O=S(=O)(Cc1cccc(C(F)(F)F)c1)N1CCOCC1 | -0.048 | /
Cc1nc2cc(C(=O)O)ccc2n1C | -0.65 | 1.8
Cc1ccc2c(NC(=O)C3CC3)cccc2n1 | 2 | -4.1
COC(=O)c1ccc(CSc2nnc3n(Cc4ccc(C)cc4)c(=O)c4ccccc4n23)o1 | / | -0.6
CC(C)(C)S(=O)(=O)/C(C#N)=C/c1cc(C(F)(F)F)cc(C(F)(F)F)c1 | / | 1.7
COc1ccc(NC(=O)/C=C/c2ccc(OC)c(OC)c2)cn1 | -0.82 | -1.2
COc1ccc(-c2nc3c([nH]2)CCc2nonc2-3)cc1 | 0.64 | -2.2
Cc1ccc(C(c2c(O)[nH]c(=S)[nH]c2=O)N2CCC(C)CC2)cc1 (stereo not given) | 0.024 | 4.1
CSc1nc2ccccc2n1-c1ccccc1 | -1.1 | 0.0
N#Cc1c(NC(=O)c2ccco2)sc2c1CCCC2 | 2.5 | -2.1
CC(C)OC(=O)CSC1=C(C#N)C(c2ccccc2Cl)CC(=O)N1 (stereo not given) | 1.2 | 0.6
N#Cc1c(-c2ccccc2Cl)c(C#N)c2nc3ccccc3n2c1N | / | -8.4
O=C(c1cn(-c2ccccc2)nc1-c1cccs1)N1CCN(C2CCS(=O)(=O)C2)CC1 (stereo not given) | / | 0.2
c1ccc(-c2nc(N3CCCCCC3)c3ccccc3n2)cc1 | / | 0.6
COc1cc(O)oc1C=Nc1ccc(C(F)(F)F)cc1 | 0.15 | /
CN1CC(C(=O)Nc2ccc3c4c(cccc24)CC3)CC1=O (stereo not given) | -1.6 | 1.6
CSc1n[nH]c(=O)n1-c1cccc(Cl)c1 | 0.1 | -1.1
O=C(NC1CCCC1)C1CCN(C(=O)c2cc3sccc3n2Cc2ccc(F)cc2)CC1 | 1.8 | -2.2
Cc1cc(C)cc(NC(=O)NC2CCN(c3nc(C)cc(C)n3)CC2)c1 | -0.61 | 0.2
CCOC(=O)N1CCc2c(sc(NC(=O)c3ccc(S(=O)(=O)N(C)C)cc3)c2C#N)C1 | -0.44 | 0.1
Cc1nc2cc(S(=O)(=O)N3CCC(C(=O)NCc4ccoc4)CC3)ccc2n1C1CCCC1 | -0.44 | -0.5
CCOC(=O)c1c(C)[nH]c(C)c1S(=O)(=O)NCC(=O)Nc1nccs1 | / | 0.3
O=C(N(c1ccccn1)c1ccccn1)C12CC3CC(CC(C3)C1)C2 | / | 2.1
N/C(COc1ccccc1Cl)=N\O | 0.18 | -2.1
CCOC(=O)c1cnc2ccccc2c1NCCCN(C)C | -1.8 | 0.4
(cont.)
SMILES | KSHV LANA nucl | Ab BasE inh
CS(=O)(=O)c1ccc2nc(NC(=O)Nc3ccccc3F)sc2c1 | -0.13 | 1.9
Cn1cnc2c(=O)oc3ccc(S(=O)(=O)NCCc4ccccc4)cc3c21 | -0.33 | -0.1
Cc1ccc2nc(-c3cccc(NC(=O)C4CCCCC4)c3)oc2c1 | / | -1.1
Clc1ccc(C2=NCCc3sccc32)cc1 | / | 1.1
c1ccc(-c2csc3ncnc(Sc4nnnn4-c4ccccc4)c23)cc1 | / | -2.5
CC(C)CC(Nc1ncnc2sc3c(c12)CCC3)C(=O)O (stereo not given) | / | 1.2
N#Cc1cnn(-c2ncnc3sc(-c4ccccc4)cc23)c1N | / | 2.3
CC(c1ccccc1)n1c(CCn2ncc3ccccc3c2=O)n[nH]c1=S (stereo not given) | -1.2 | 2.6
Cc1cc2[nH]c(=O)c(=O)[nH]c2cc1S(=O)(=O)N(CC(C)C)CC(C)C | 0.8 | 0.9
Cn1c(=O)c(C(=O)N2CCN(Cc3ccccc3)CC2)cc2cccnc21 | 0.9 | 0.2
CN(CCOc1ccccc1Cl)Cc1ccccc1 | / | -0.1
CC1Cc2ccccc2N1C(=O)CSc1nnc2n1C(C)(C)Cc1ccccc1-2 (stereo not given) | -0.24 | -0.2
COC1=C(OC)C2(C=CC1=O)CC(C)(C)N=C2SC (stereo not given) | -0.31 | 1.1
CCN(CC)Cc1cc(C(=O)O)oc1C(C)(C)C | -1.6 | -1.2
Cc1ccc(S(=O)(=O)N(C)c2ccc(OCC(=O)OCC(N)=O)cc2)cc1 | / | 0.4
Cc1ccc2cccc(OCC(N)=O)c2n1 | / | -0.4
CCOC(=O)c1ccc2nc(/N=C/NOC(=O)c3cccs3)sc2c1 | 1.5 | -5.0
CC(C)C(c1nnnn1C1CCCC1)N1CCN(C(=O)c2ccco2)CC1 (stereo not given) | -0.22 | -0.2
N#CCON1C(=O)c2ccccc2C1=O | 0.58 | 0.5
CCOC(=O)Cn1ccc2cc(S(=O)(=O)N3CCCC3)ccc21 | 1.3 | 0.6
CCOC(=O)NC(=S)c1ccc[nH]1 | / | 0.5
N#CCC(=O)NCc1ccc(Cl)cc1 | / | 1.8
Cc1nn(-c2ccccc2)nc1C(=O)N(C)c1nnc(C(F)(F)F)s1 | / | 3.7
CCOc1cc2c(cc1CNC(=O)C1CC1)OC(C)C2 (stereo not given) | / | 2.1
Cc1cc2n(n1)C(c1cc(C(C)(C)C)c(O)cc1O)Nc1c(C)cccc1-2 (stereo not given) | -0.64 | 2.3
Brc1ccc(-c2csc(N/N=C/c3ccco3)n2)cc1 | / | 2.5
O=C(COc1ccc2ccc(=O)oc2c1)Nc1ccc2c(c1)OCCCO2 | / | 0.9
CCCN1CCCc2cc(CN(CCCN3CCOCC3)C(=O)Nc3ccccc3)ccc21 | -0.32 | -0.7
C=CCNC(=O)c1ccc(Cl)c(S(C)(=O)=O)c1 | / | 1.6
O=C(CSc1nnc(-c2ccc3c(=O)n4c(nc3c2)CCCCC4)o1)C12CC3CC(CC(C3)C1)C2 | / | -3.4

In the list so far, these have an aryl methoxy group:
SMILES | KSHV LANA nucl | Ab BasE inh
COc1ccc2c(=O)c3c(oc2c1)C(=O)N(CCN1CCOCC1)C3c1ccccc1 (stereo not given) | -0.13 | 2.7
COc1ccc(/C=C2\C(=N)N3N=C(N4CCOCC4)SC3=NC2=O)cc1 | -1.1 | 1.3
COc1cc(OC)c(NS(=O)(=O)c2cc(-c3cc(C)no3)ccc2C)cc1Cl | / | -1.6
CCN1C(=O)/C(=c2\s/c(=C3\Sc4ccc(OC)cc4N3C)c(=O)n2Cc2ccccc2)N(C)C1=S | 0.68 | -0.9
COc1cnn(C2CCCCC2)c(=O)c1Cl | -0.71 | -0.3
COc1cc2ccccc2cc1C(=O)Nc1ccc2c(c1)OCCO2 | / | 1.0
COc1ccc(S(=O)(=O)N2CCCCCC2)cc1C(=O)NC1CCCCC1 | / | -0.2
COc1ccc(NC(=O)/C=C/c2ccc(OC)c(OC)c2)cn1 | -0.82 | -1.2
COc1ccc(-c2nc3c([nH]2)CCc2nonc2-3)cc1 | 0.64 | -2.2
COc1cc(O)oc1C=Nc1ccc(C(F)(F)F)cc1 | 0.15 | /

(next part)
SMILES | KSHV LANA nucl | Ab BasE inh
O=C(C1=C(O)C(=O)N(Cc2ccccc2)C1c1ccco1)c1ccco1 (stereo not given) | 0.34 | 2.8
CCCCc1nn2c(=O)cc(CSc3nnc(NC(=O)c4ccco4)s3)nc2s1 | 0.69 | 1.7
Cc1cc(C(F)(F)F)nc(/N=C(\N)Nc2ccc(Cl)cc2)n1 | -0.13 | 0.9
CC(=O)N(C)c1c(C)n(C)n(-c2ccccc2)c1=O | / | 0.8
Brc1ccc2ncnc(NCCCN3CCOCC3)c2c1 | 1.4 | -0.6
CCOC(=O)N1CCN(S(=O)(=O)c2ccc(Br)s2)CC1 | -0.49 | 0.0
Cc1c(-c2ccccc2)oc2c(C(=O)N3CCC(=O)CC3)cccc2c1=O | / | -0.7
CCOC(=O)/C(C#N)=C/c1cc(C)n(-c2ccc(C)cc2)c1C | -0.03 | 18
CC(C)n1cnc2c(NCc3ccccc3)nc(NCCO)nc21 | -0.32 | -1.6
O=C(c1ccccc1)c1ccc(-c2ccccc2)cc1 | / | 3.2
